Arbovirus anti: antivirals against arbovirus infection, primary screen, cell-based, full library, 10K replicate subset; arbovirus infection cell-based antiviral screen; inhibition, % at 10 µM; 200,000 tested, 0.37% active; AID 1251, 2008;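 active means inhibition from about 30%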;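 further: bluetongue infection of BSR cells; cell survival read as ATP light after 72 h; 0% = infected wells without compound and 100% = uninfected wells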
Mtb bLac sens: beta-lactam sensitization of Mtb H37Rv, H37Rv. M. tuberculosis H37Rv growth with meropenem, percent inhibition; hits of this screen are not shown here. 330,000 tested, 0.27% active. inhibition, % at 25 µM;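 active means about 74% or more and at least 40 points above the plate without the antibiotic, then above 30% in a dose series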;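 further: growth measured after seven days incubation then overnight dye step; 0% = bacteria only wells and 100% = bacteria with antibiotic; twin plates without the antibiotic show which effects depend on it; some results filed as inactive read as strong as hits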
RecA intein inh: Mtb RecA intein splicing inhibitors, primary screen, biochemical, fluorescence, HTS. Protein RecA (Mycobacterium tuberculosis (strain ATCC 25618 / H37Rv)), P9WHJ3. cell-free RecA intein splicing. inhibition, %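 (about 9 µM by stock and volumes)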. 290,000 tested, 0.75% active; in the data active means inhibition above about 30%;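 further: 0% = vehicle wells and 100% = reference inhibitor control wells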
Target sequence (P9WHJ3 whole entry, looked up): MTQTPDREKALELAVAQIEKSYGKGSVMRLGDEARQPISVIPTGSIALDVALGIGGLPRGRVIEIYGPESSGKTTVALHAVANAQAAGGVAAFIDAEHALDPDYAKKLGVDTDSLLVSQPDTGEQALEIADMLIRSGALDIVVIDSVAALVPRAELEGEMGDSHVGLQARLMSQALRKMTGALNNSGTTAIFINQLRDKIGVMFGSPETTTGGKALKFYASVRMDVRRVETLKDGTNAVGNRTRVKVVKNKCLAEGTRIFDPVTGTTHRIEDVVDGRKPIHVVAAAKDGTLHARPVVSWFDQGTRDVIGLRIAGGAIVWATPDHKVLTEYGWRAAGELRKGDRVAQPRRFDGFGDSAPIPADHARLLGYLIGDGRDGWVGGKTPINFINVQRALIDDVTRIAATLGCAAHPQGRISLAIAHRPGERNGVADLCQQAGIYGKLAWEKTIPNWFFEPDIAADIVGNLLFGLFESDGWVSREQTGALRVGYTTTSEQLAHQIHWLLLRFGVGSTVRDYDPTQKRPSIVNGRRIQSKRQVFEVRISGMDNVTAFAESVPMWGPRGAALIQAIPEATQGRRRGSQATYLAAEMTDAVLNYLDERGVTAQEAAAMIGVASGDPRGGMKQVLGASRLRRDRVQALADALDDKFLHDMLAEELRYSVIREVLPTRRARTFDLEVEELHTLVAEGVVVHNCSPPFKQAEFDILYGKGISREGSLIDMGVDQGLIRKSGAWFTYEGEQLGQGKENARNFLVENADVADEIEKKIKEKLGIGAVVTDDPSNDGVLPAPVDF
Mtb H37Rv: M. tuberculosis H37Rv growth inhibitors, H37Rv strain (AID 1626). M. tuberculosis H37Rv growth inhibition; higher % means a stronger effect. one-dose inhibition, % at 10 µM; IC50 in µM for titrated hits. 220,000 tested, 0.95% active;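 active means confirmed in a dose series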;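 further: bacteria incubated seven days before Alamar blue readout; 0% = bacteria only wells and 100% = bacteria with antibiotic wells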
YopH PTP inh: YopH tyrosine phosphatase inhibitors, primary screen, biochemical, fluorescence Ex485/Em525; inhibition, %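 (about 10 µM by stock and volumes)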; 140,000 tested, 0.16% active;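 active means inhibition of 50% or more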;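 further: controls were vehicle for no effect and minimum signal wells for full effect; inactives centre near -20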
Arbovirus anti repeat: recorded beside Arbovirus anti, whose call it bears; inhibition, %; measured here: 10K subset replicate screen; many hits read low in the repeat;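 first of two repeat runs on a subset; 0% = infected and 100% = uninfected wells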
Starred values were filed as active, the others as inactive; · = no result given. Only part of the results is shown. The share of hits here may be higher or lower than overall.

SMILES	Arbovirus anti	Mtb bLac sens	RecA intein inh	Mtb H37Rv	YopH PTP inh	others
CC(=O)N1CCc2cc(S(=O)(=O)CCC(=O)N3CCC(C)CC3)ccc21	·	-2	-1.0	·	·
Cc1ccccc1NC(=O)c1ccc(COc2ccc3c(C)cc(=O)oc3c2)cc1	4	-2	-0.3	2%	-32
CCCCN(C(=O)NC(=O)Nc1ccccc1OC)S(C)(=O)=O	12	9	2.2	-3%	-54
Cc1ccc(S(=O)(=O)N2CCN(S(=O)(=O)N3CCCCC3)CC2)cc1	8	-3	-2.6	-4%	-21
COc1ccc(CSc2nnc(SCc3ccc([N+](=O)[O-])cc3)s2)cc1	-3	-1	2.2	21%	-26
O=C(NC(=S)Nc1nc(-c2ccc(Br)cc2)cs1)c1cccnc1	-13	8	-5.0	-1%	5
COCCN1C(=O)C(=O)/C(=C(/O)c2ccc(S(=O)(=O)N3CCOCC3)cc2)C1c1cccc(O)c1 (centres undefined)	·	-4	0.9	-5%	·
CCOC(=O)c1ccc(NC(=O)CN(c2ccc(C)cc2)S(=O)(=O)c2c(C)n[nH]c2C)cc1	-1	36	-1.7	·	-21
COc1ccc(N2CCN(C(=O)CNC(=O)Cn3cnc4sc(C)c(C)c4c3=O)CC2)cc1	·	5	-3.3	·	·
CCN1CCN(C(=O)CN2C(=O)c3cccc4cccc2c34)CC1	8	-8	-21	-3%	-6
C/C(=N\NC(=O)Cc1c(C)[nH][nH]c1=O)c1ccc(Cl)c(Cl)c1	·	-2	·	-14%	·
CCn1cc(C(=O)NCCC(C)C)c(=O)c2cc(F)c(N3CCN(C(=O)c4ccco4)CC3)cc21	·	54	-9.8	·	·
COc1ccccc1Nc1nc(N)nc(CN(C)C2CCCCC2)n1	4	-2	·	-11%	-19
CC/C(C)=C1\SC(N2CCOCC2)=NC1=O	3	-5	-3.7	2%	-17
Cc1ccc(NS(=O)(=O)c2ccc(Cl)s2)cc1S(=O)(=O)N(C)C	4	3	0.7	-4%	-28
COc1ccc(NC(=S)Nc2cccc3cnccc23)cc1	-1	2	3.9	1%	-9
CCNC(=O)COc1ccc(Br)cc1Cl	0	1	·	-7%	23
Cc1ccc(NC(=O)CC2CCCC2)c(Br)c1	·	4	0.1	·	·
CC(=O)Nc1ccc(S(=O)(=O)Nc2nc3ccccc3nc2Nc2ccc(O)cc2)cc1	·	-4	-3.5	2%	·
COc1ccc(CN2C(=O)CSC2c2ccncc2)cc1 (centres undefined)	·	8	·	-2%	·
Cc1ccc(-n2c(=S)sc3c(=O)n(-c4ccccc4C)c(SCC(=O)O)nc32)cc1C	·	6	-25	·	·
CCOc1ccc(S(=O)(=O)NCc2ccccn2)cc1	0	8	2.7	-6%	2
CC(=O)c1ccc(NC(=S)Nc2cccc(S(=O)(=O)Nc3c(C)n(C)n(-c4ccccc4)c3=O)c2)cc1	2	7	2.1	-4%	·
S=C1SCN(Cc2cccnc2)CN1Cc1cccnc1	·	100	2.4	40%	·
CC(/C=N/NC(=O)c1cc(-c2cccnc2)nc2c1c(C)nn2-c1ccccc1)=C\c1ccccc1	6	53	-11	22%	3
O=C(c1ccc(S(=O)(=O)Cc2cc(F)ccc2F)c([N+](=O)[O-])c1)N1CCCCC1	-10	1	-3.2	3%	-14
COCCn1c(SCC(=O)Nc2cc(C)cc(C)c2)nnc1C(C)C	6	4	0.7	5%	-37
O=C(N/C=C\c1ccccc1)NCc1ccc(Cl)cc1	-6	-4	4.8	2%	-21
O=C(c1ccc2c(=O)n(Cc3ccc4c(c3)OCO4)c(=S)[nH]c2c1)N1CCCCC1	-3	12	-3.2	9%	-45
CCc1nc(SCC(=O)N2CC(=O)Nc3ccccc32)c2c(C)c(C)sc2n1	-4	4	-1.6	6%	-42
COc1ccc(CN2C(=O)C(CC(C)C)Nc3ncnc(N4CCCCC4)c32)cc1 (centres undefined)	·	-1	6.6	·	·
Cc1ccc(CS(=O)(=O)c2ccc(C(=O)N3CCCCC3)cc2[N+](=O)[O-])cc1	2	2	1.0	-2%	·
O=C(CO/N=C/c1ccc(OC(F)F)cc1)NC1CCCCC1	1	5	-0.2	-9%	·
Cc1noc(NS(=O)(=O)c2ccc(NC(=O)CSc3nc4c(cc3C#N)CCC4)cc2)c1C	0	-8	2.3	-14%	-14	Arbovirus anti repeat=1
Fc1ccccc1NC(=S)N1CCN(Cc2ccccc2)CC1	12	-7	-0.3	-2%	-18
COc1ccc(NC(=O)CSc2nc3nc(C)cc(C)c3c(=O)[nH]2)cc1	·	7	-0.6	·	·

Of the compounds above, three have a nitro group on carbon:
SMILES	Arbovirus anti	Mtb bLac sens	RecA intein inh	Mtb H37Rv	YopH PTP inh	others
COc1ccc(CSc2nnc(SCc3ccc([N+](=O)[O-])cc3)s2)cc1	-3	-1	2.2	21%	-26
O=C(c1ccc(S(=O)(=O)Cc2cc(F)ccc2F)c([N+](=O)[O-])c1)N1CCCCC1	-10	1	-3.2	3%	-14
Cc1ccc(CS(=O)(=O)c2ccc(C(=O)N3CCCCC3)cc2[N+](=O)[O-])cc1	2	2	1.0	-2%	·

Two records picked at random from the list so far, as already listed:
SMILES	Arbovirus anti	Mtb bLac sens	RecA intein inh	Mtb H37Rv	YopH PTP inh	others
CCc1nc(SCC(=O)N2CC(=O)Nc3ccccc32)c2c(C)c(C)sc2n1	-4	4	-1.6	6%	-42
O=C(c1ccc2c(=O)n(Cc3ccc4c(c3)OCO4)c(=S)[nH]c2c1)N1CCCCC1	-3	12	-3.2	9%	-45

(more compounds)
SMILES	Arbovirus anti	Mtb bLac sens	RecA intein inh	Mtb H37Rv	YopH PTP inh	others
CCOC(=O)c1cnc2c(-c3ccccc3)c(-c3ccccc3)nn2c1C	·	98	-2.0	·	·
O=C(CCC(=O)N(CC(=O)NC1CCCCC1)Cc1ccco1)Nc1nccs1	-4	4	-0.2	-2%	-39
COc1ccc(-c2cc(C(=O)NCCN3CCOCC3)no2)cc1OC	·	-3	0.1	·	·
O=C1CC(c2ccccc2)c2ccc(O)cc2O1 (centres undefined)	3	0	-1.3	-11%	-39
Cc1cc(C)n(/C(=C\N(C)C)C(=O)c2ccc(Cl)cc2)n1	7	-8	0.5	-3%	·
O=C(NCc1ccccc1Cl)C1CCCN(c2ncnc3c2nc2n3CCCCC2)C1 (centres undefined)	·	3	1.5	·	·
Cc1nn(-c2cc(N(S(C)(=O)=O)S(C)(=O)=O)c(Cl)cc2Cl)c(=O)n1C	7	1	6.0	6%	44
CC1=C(C(=O)Nc2ccc(CC(=O)NCc3ccc(OC(C)C)cc3)cc2)SCCO1	·	0	0.9	·	·
CCc1ccccc1NC(=O)CN(C1CCCCC1)S(C)(=O)=O	·	-5	2.6	·	·
CCOC(=O)c1c(CNCCN(CC)CC)n(C)c2cc(Br)c(OC)cc12	-33	-9	0.0	10%	9
COc1ccc(CCN2CC(O)=C(c3nc(C)cs3)C2=N)cc1OC	8	2	-0.8	-10%	-100
Cn1c(CCN2CCCCC2)nc2cc(NC(=O)COc3ccc([N+](=O)[O-])cc3)ccc21	·	-5	0.3	·	·
C/C(=N\NC(=O)c1ccccc1O)c1c(O)n(C2CCCCC2)c(=O)[nH]c1=O	·	8	15	·	·
COc1ccc(N(C(=O)CS(=O)CC(=O)Nc2ccc(F)cc2)C(C(=O)NC2CCCCC2)c2cccs2)cc1 (centres undefined)	-11	-3	1.0	63%	-3
COC(=O)c1ccc(CSc2ncnc3c2nnn3-c2ccc(OC)cc2)o1	-10	0	-0.5	4%	-6
CCOC(=O)C1=C(NC(=S)NC(=O)c2ccccc2)c2ccccc2CC1(C)C	8	-2	9.3	10%	-18
CC12CCC(C(=O)N(CCC#N)CCC#N)(CC1=O)C2(C)C (centres undefined)	-2	-17	1.5	-5%	-44
COc1ccc(-c2noc(-c3cc4ccccc4oc3=O)n2)cc1	4	96	-4.0	·	-23
Cc1cccc(N(CC(=O)NC2CCCCC2)C(=O)CCCC(=O)Nc2ccccn2)c1	0	-5	-0.1	6%	16
COc1ccc(NC(=O)COC(=O)C2CCC2)cc1Cl	·	-6	0.7	·	·
CCc1ccc(CCC(=O)Nc2ccc(OC)cc2)o1	-14	95	1.6	36µM*	-27
Cn1c(Cc2ccccc2)nnc1SCC(=O)c1cccs1	-3	-5	0.7	-6%	0
c1ccc(CCNCCCOc2cccc3ccccc23)cc1	·	52	0.8	·	·
Cc1ccc(-c2cc(C(=O)NN)n[nH]2)o1	·	14	0.7	-4%	·

Ordered by SMILES length (falling): some entries from above
SMILES	Arbovirus anti	Mtb bLac sens	RecA intein inh	Mtb H37Rv	YopH PTP inh	others
CCOC(=O)C1=C(NC(=S)NC(=O)c2ccccc2)c2ccccc2CC1(C)C	8	-2	9.3	10%	-18
COC(=O)c1ccc(CSc2ncnc3c2nnn3-c2ccc(OC)cc2)o1	-10	0	-0.5	4%	-6
CC12CCC(C(=O)N(CCC#N)CCC#N)(CC1=O)C2(C)C (centres undefined)	-2	-17	1.5	-5%	-44
COc1ccc(-c2noc(-c3cc4ccccc4oc3=O)n2)cc1	4	96	-4.0	·	-23
Cn1c(Cc2ccccc2)nnc1SCC(=O)c1cccs1	-3	-5	0.7	-6%	0
c1ccc(CCNCCCOc2cccc3ccccc23)cc1	·	52	0.8	·	·

Remaining list, next part:
SMILES	Arbovirus anti	Mtb bLac sens	RecA intein inh	Mtb H37Rv	YopH PTP inh	others
Cc1c(C(=O)N2CCC(C)CC2)cccc1[N+](=O)[O-]	3	3	-0.7	3%	·
CN1CCN(c2nc3c(c(=O)n(C)c(=O)n3C)n2CC(N)=O)CC1	5	0	4.1	-3%	-16
Cc1c(S(=O)(=O)Nc2ccc(Oc3ccccc3)cc2)c(=O)n(C)c(=O)n1C	·	-11	3.5	·	·
CC(=O)Nc1ccc(C(=O)OCc2ccc(Cl)c(Cl)c2)cc1	10	36	8.0	4%	-30
Cc1cccc(CN2CCN(CC(=O)NCc3ccc(F)cc3)C2=O)c1	8	-4	-0.8	1%	-46	Arbovirus anti repeat=3
COc1ccccc1NC(=O)CN1C(=O)NC(C)(C)C1=O	2	-7	1.4	-7%	-10
O=C(OCc1cc([N+](=O)[O-])cc2c1OCOC2)c1ccc2ccccc2n1	1	59	1.1	19%	·
CN(CCc1ccccn1)C(=O)Nc1ccc(F)cc1	-1	-13	-1.7	-9%	-28	Arbovirus anti repeat=2
Cc1nc2ccccc2c(=O)n1NC(=O)c1ccc(C(C)(C)C)cc1	·	2	-1.6	·	·
O=[N+]([O-])c1ccc(NCc2ccc3c(c2)OCO3)cc1	-7	2	-0.1	10%	·
CCNc1nc2cccnc2s1	·	3	1.0	-1%	·
Brc1ccc(-c2nnc(-c3ccccc3)o2)o1	5	-28	5.9	-7%	-13
CCOc1ccc(-c2nnc3ccc(SCC(=O)N4CCCCC4)nn23)cc1	-4	6	0.0	3%	·	Arbovirus anti repeat=-6
O=C(CCC1CCCCC1)Nc1ccccc1-c1ccccc1	-8	76	14	1%	-31
CCOC(=O)c1cc(-c2ccc(Cl)s2)[nH]n1	·	-9	3.1	-3%	·
COc1ccccc1S(=O)(=O)CC(O)COc1ccc(C#N)cc1 (centres undefined)	10	-2	-1.8	-1%	·
COc1ccc(/C=C/C(=O)NCCOc2ccccc2OC)cc1	1	48	0.5	6%	-20
O=C(c1ccc(Cl)c(S(=O)(=O)Nc2ccccc2C(=O)N2CCc3ccccc3C2)c1)N1CCc2ccccc2C1	-17	8	5.6	-1%	-8
CC(=NCc1ccc2c(c1)OCO2)c1c(O)n(-c2ccccc2)c(=O)[nH]c1=O	·	-2	-1.1	5%	·
Cc1ccc(C(=O)N2CCN=C2SCc2ccc([N+](=O)[O-])cc2)cc1C	-1	2	-5.4	71%	·
O=C(OC1CCOC1=O)c1ccc2ncsc2c1 (centres undefined)	3	-3	-0.5	-6%	-33
O=C(CSc1ccc(-c2cccnc2)nn1)Nc1ccc(F)cc1	·	-4	-0.1	·	·
COc1cc2c(cc1/C=C/C(=O)O)OC(C)C2 (centres undefined)	13	13	-32	1%	·
COCCNC(=O)C1(C)Oc2ccccc2NC1=O (centres undefined)	0	-2	-0.5	3%	-32
Cc1ccc(N2C(=O)c3ccc(C(=O)N4CCN(c5cccc(C)c5C)CC4)cc3C2=O)cc1	0	3	-1.7	-27%	28
CC(C)(C)c1ccc(C(=O)NCC(=O)N/N=C/c2cccnc2)cc1	·	-1	-0.9	·	·
CC(C)CNC(=O)C1CCCN1S(=O)(=O)c1ccc(Cl)cc1 (centres undefined)	7	-1	0.0	-7%	-18

Bioassay records from PubChem BioAssay.
